Bioassay records as filed in PubChem.
gsp ag = agonists of gsp mutant (McCune-Albright syndrome) | gsp mutant cells, cAMP HTRF, 30 min; control for the full effect not named in the record | 340,000 compounds, 0.13% hits | Potency, µM (highest dose often 76.9 µM), inactives show at the top dose activation (cAMP increase), actives largely listed as activators; active = well fitted activation curve with a large enough effect; inconclusive = small, poorly fitted or top-dose-only effect, or another doubt; inactive = no such curve, though single readings can be large or run the other way; cell line not stated here;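 further: phosphodiesterase inhibitor Ro 20-1724 added with compounds to block cAMP breakdown; potency means the concentration at half of the fitted maximal effect; nearly all actives have a fitted effect of over 60% in size; about a fifth of the inactives were tested at one dose only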
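Cells in DMEM/10% FBS with G418 were pretreated with compounds in DMSO plus […] (300 uM stock) for 30 min at 37C. cAMP was measured by HTRF (cAMP-d2 plus anti-cAMP antibody-K) after 30 min at room temperature.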
TRPV1 potentiator = potentiators of human vanilloid receptor 1 (TRPV1). potentiation, % at 8.33 µM. 320,000 compounds, 0.02% hits. TRPV1-expressing cells, Fluo-8 calcium influx, capsaicin EC20 potentiation; host cell line not named in the record; control for the full effect not named in the record; active means potentiation above 80%; inconclusive means 30% to 80%; inactive means below 30%; further: 0% is about no effect
Target sequence (Q8NER1 whole entry, looked up): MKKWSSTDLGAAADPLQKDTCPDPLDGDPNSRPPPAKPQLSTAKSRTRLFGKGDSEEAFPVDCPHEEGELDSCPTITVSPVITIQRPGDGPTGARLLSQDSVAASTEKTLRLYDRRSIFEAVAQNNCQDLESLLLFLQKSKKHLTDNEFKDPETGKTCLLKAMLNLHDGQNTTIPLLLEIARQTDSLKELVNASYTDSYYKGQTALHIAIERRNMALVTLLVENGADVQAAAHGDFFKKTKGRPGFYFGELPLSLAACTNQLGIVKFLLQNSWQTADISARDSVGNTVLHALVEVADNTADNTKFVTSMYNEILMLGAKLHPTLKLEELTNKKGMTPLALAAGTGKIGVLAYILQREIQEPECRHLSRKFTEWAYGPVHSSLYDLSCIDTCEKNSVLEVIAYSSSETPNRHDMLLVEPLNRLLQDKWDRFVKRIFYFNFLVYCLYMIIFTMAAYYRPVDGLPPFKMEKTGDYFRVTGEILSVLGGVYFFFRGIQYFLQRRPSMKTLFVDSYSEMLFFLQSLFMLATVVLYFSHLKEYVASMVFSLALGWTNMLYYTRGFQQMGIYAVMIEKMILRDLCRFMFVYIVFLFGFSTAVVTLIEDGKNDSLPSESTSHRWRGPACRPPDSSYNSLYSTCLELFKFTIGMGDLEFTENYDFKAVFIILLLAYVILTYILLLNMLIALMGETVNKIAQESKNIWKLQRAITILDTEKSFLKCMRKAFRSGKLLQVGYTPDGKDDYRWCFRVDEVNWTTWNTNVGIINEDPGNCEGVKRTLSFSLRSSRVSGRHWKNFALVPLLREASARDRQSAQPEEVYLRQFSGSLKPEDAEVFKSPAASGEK
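Cells expressing TRPV1 were dye-loaded with Fluo-8 and read kinetically: 10 s baseline, 3 min after compound (agonist portion), then 2 min after EC20 capsaicin (allosteric enhancer portion). Calcium-bound dye fluorescence at 480/520 nm.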
CtBP-E1A inh = blocks the CtBP interaction with E1A | AlphaScreen GST-E1A/His-CtBP binding, 1536-well; hits give low values; control for the full effect not named in the record | activity change, % (concentration not given with the values) | 340,000 compounds, 0.49% hits | AID 651724; in the data active means activity change below about -65%; inconclusive means about -30% to -65%; inactive means above about -30%; further: on the % scale 0 is the no-effect control and ±100 the full control effect
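Homogeneous bead-based format: GST-tagged E1A captured on glutathione donor beads, His-tagged CtBP on nickel acceptor beads; compounds precede bead addition by 2 h at 37 °C.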
gsp antagonist = antagonists of gsp mutant (McCune-Albright syndrome). Potency, µM (top dose mostly 76.9 µM), for the others: at the top dose activity change, negative = inhibition, usual class: inhibitors. AID 624288. 340,000 compounds, 0.4% hits. gsp-mutant cells, cAMP HTRF, 30 min; control for the full effect not named in the record; active = falling curve of any shape with a large fitted effect; inconclusive = falling curve, mostly with a smaller effect; inactive = flat or rising curve; cell line not stated here;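 further: intracellular cAMP measured with PDE inhibitor Ro 20-1724 present during compound exposure; potency means the concentration at half of the fitted maximal effect; on the % scale 0 is the no-effect control and ±100 the full control effect; nearly all actives have a fitted effect of over 65% in size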
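HTRF cAMP measurement after 30 min RT detection following 30 min, 37C compound treatment alongside […] (added as 300 uM solution) in G418-selected cells seeded at 2000/well and grown 16–24 h.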
Sfp PPTase inh = blocks B. subtilis Sfp PPTase activity | Q9F4F7 | Biochemical Sfp PPTase activity, qHTS | Potency, µM, for the others: max response, negative = inhibition, most hits filed as inhibitors | 310,000 compounds, 3.5% hits | AID 1490; active means well fitted inhibition curve with a large enough effect; inconclusive means small, poorly fitted or top-dose-only effect, or another doubt; inactive means no such curve, though single readings can be large or run the other way;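 further: the enzyme is Sfp with the accession as filed and its product quenches rhodamine fluorescence; potency means the concentration at half of the fitted maximal effect; 0% = enzyme reaction without inhibitor and -100% = no enzyme wells; top concentration of the series not given in the record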
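Compounds were incubated with enzyme (final 15 nM) for 15 min at room temperature before substrate addition started the reaction. Fluorescence at 525 nm excitation, 598 nm emission was recorded immediately and after 30 minutes.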
Menin-MLL FL inh = inhibitors of human menin-MLL interaction, wild-type MLL peptide | Fluorescence polarization, fluorescein-MLL peptide displacement from menin | FP activity change, % at 61.4 µM | 290,000 tested, under 10 active | AID 1766; inconclusive = falling polarisation curve, or a change in total fluorescence; inactive = total fluorescence flat and polarisation flat or rising; no compound was filed as active; the % refers to the polarisation; negative = inhibition;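 further: % of control where 0% means no effect; inhibitors lower the polarisation; unlabelled MLL peptide was the positive control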
ClpP mod = qHTS Assay for Activators of ClpP | ATP-dependent Clp protease proteolytic subunit (Bacillus subtilis (strain 168)), P80244 | purified B. subtilis ClpP, FRET peptide cleavage, 20 min | Potency, µM (highest dose often 57.5 µM), inactives show top-dose activity change, negative = active | 340,000 compounds, 1.9% hits | AID 651965, 2013; active = well fitted falling curve with a large enough effect; inconclusive = small, poorly fitted or top-dose-only effect; inactive = no such curve, though single readings can be large or run the other way; further: potency means the concentration at half of the fitted maximal effect; the source files actives as falling curves though it sought activators and does not explain the sign; nearly all actives have a fitted effect of over 65% in size; many hits overshoot -100%
Target sequence (P80244 whole entry, looked up): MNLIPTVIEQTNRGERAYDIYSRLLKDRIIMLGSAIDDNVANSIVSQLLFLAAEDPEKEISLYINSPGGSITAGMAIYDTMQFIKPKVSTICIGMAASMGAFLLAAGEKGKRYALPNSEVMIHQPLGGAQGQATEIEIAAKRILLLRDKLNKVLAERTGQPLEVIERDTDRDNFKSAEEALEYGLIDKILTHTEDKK
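ClpP 10 microg/mL final, pH 8 Tris/KCl buffer with BSA, glycerol, Tween-20; compound pinned in; FRET-FV substrate; RT 20 min; Ex320/Em430; ΔFRET vs ADEP 5.8 microM, DMSO, no enzyme.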
Numbers without * were called inactive; ? = inconclusive; . = not tested or not shown; [ ] = remark or other dose.

Values run as follows: gsp ag, TRPV1 potentiator, CtBP-E1A inh, gsp antagonist, Sfp PPTase inh, Menin-MLL FL inh, ClpP mod
- COc1ccc(Cl)cc1N1C(=O)CC(Sc2ccccc2N)C1=O (configuration not stated)
→ 21%[15.4 µM], -6, -12, -12%, 1%, 20, -1.4%
- CCC(/C=N/NC(=O)C(=O)N/N=C/C(CC)CC)CC
→ 1%, 0, 0, 3%, 7%, -1.1, -1.3%
- CCCOc1ccccc1/C=C(\C#N)C(=O)Nc1cccnc1
→ -37%[inhibitor], ., -11, -16%, -16%, 13, .
- CC(C)NC(=O)c1onc(CSc2cccc3ccccc23)c1C(=O)O
→ ., ?, 4, -17%, -2%, 0.4, 0.4%
- Cc1nc2c(N=Nc3ccccc3F)c(N)nn2c(N)c1C#N
→ 20%, 0, ?, -5%, 13%, -1.0, 0.2%
- COCCN(C(=O)COC(=O)/C(=C/c1ccccc1)NC(C)=O)c1c(N)n(Cc2ccccc2)c(=O)[nH]c1=O
→ 9%, 17, 1, -14%, 6%, ., -25%
- Cc1ccccc1C(=O)N1CCN(c2ccc(NC(=O)c3ccc4c(c3)OCO4)cc2)CC1
→ -19%[15.4 µM], 6, -1, ?, 3%, -0.9, .
- CN(C)C(=O)c1ccc(Nc2ncnc3sc4c(c23)CCCCC4)cc1
→ 1%, 9, -4, -10%, 17%, 0.3, .
- CC1=NCCN1CCNC(=O)Nc1ccc(F)cc1
→ -44%, -5, 11, -1%, -7%, -1.4, .
- COC(=O)c1ccc(C(=O)OC)c(NC(=S)N2CCN(c3ccc(F)cc3)CC2)c1
→ -25%[15.4 µM], -3, 6, -1%, 5%, 4.9, -16%
- CN1C(=S)SC(N(O)C(=O)NC2CCCCC2)C1(C)C (configuration not stated)
→ ?, 6, 7, 8%, -8%, 3.2, 2.1%
- O=C(Nc1cccnc1)c1ccc(NS(=O)(=O)c2cc([N+](=O)[O-])ccc2Cl)cc1
→ 2%, -5, -2, 0%, -23%, -1.6, 0.8%
- CC(C)(c1ccccc1)c1ccc(OCCCNCCO)cc1
→ 18%, -2, -1, 5%, -28%, -0.6, 1.1%
- COCCSc1ccccc1C(=O)Nc1ccccc1C(C)C
→ ?, 9, ., 7%, 18µM*, 1.6, -0.3%
- CCOc1c(Cl)cc(/C=N/NC(N)=S)cc1OC
→ -5%[15.4 µM], 3, 0, 2%, 4%, 5.0, .
- COc1ccc(NS(=O)(=O)c2ccc(Cl)c(N)c2)cc1Br
→ ?, 2, -9, -13%, ?, 4.8, .
- Cc1ccc(C(=O)NCc2ccco2)cc1S(=O)(=O)Nc1cccc(Cl)c1
→ 1%, 8, -4, -12%, 18%, 8.6, -3.6%
- O=C1CN(c2nc3ccccc3n3cnnc23)CC(=O)N1CCc1ccccc1
→ 5%, 0, 3, -8%, 1%, 0.8, -5.9%
- C/C=C1\COC(C(=O)NCc2ccncc2)(C(F)(F)F)C=C1C=C1CCCCC1 (configuration not stated)
→ ., ., 0, 0%, ?, 16, -3.8%
- O=C(CSc1ccccn1)N/N=C/c1ccccc1[N+](=O)[O-]
→ -23%, -3, -5, 2%, 2%, -1.4, -0.9%
- CCOC(=O)N1CCN(S(=O)(=O)c2ccc(OC)c(Cl)c2)CC1
→ -24%, -1, 4, -15%, 2%, 3.3, 1.6%
- c1ccc(CN2CCC(Nc3nc(-c4cccnc4)nc4ccccc34)CC2)cc1
→ -33%[15.4 µM], -4, -6, -2%, 4%, -0.4, -1.9%
- CC(=O)N1CC(C)Oc2ccc(S(=O)(=O)NC(CC(=O)O)c3ccc(C)cc3C)cc21 (configuration not stated)
→ 12%, 8, ., 14%, 18%, ., 0.9%
- CCC(C)N(C(=O)COC(=O)c1cn(CC)c2nc(C)ccc2c1=O)C1CCS(=O)(=O)C1 (configuration not stated)
→ 18%, -36, 0, 6%, 3%, 9.0, 1.7%
- CCc1c(C)c(C#N)c2nc3ccccc3n2c1NC
→ 20%, -6, -14, 7%, 13%, -18, .
- Cc1ccc(-n2c(=O)c3c(C)c(C)sc3n(Cc3cc(=O)n4ccccc4n3)c2=O)cc1C
→ -5%, 2, 14, -9%, -2%, 4.1, -2.0%
- COCC(C)NC(=O)CSc1nc2ccccc2c(=O)n1CCc1ccc(S(N)(=O)=O)cc1 (configuration not stated)
→ -4%, 4, -2, -6%, 7%, ., -0.5%
- Cc1ccc(Nc2n[nH]c(=S)s2)cc1F
→ 21%, ., 11, -3%, ., ., 0.2%
- COc1ccccc1N(C(C)=O)C1SC(=O)N(c2ccccc2)C1=O (configuration not stated)
→ 4%, 5, 1, 2%, 5%, -2.6, -0.4%
- COCCNC(=O)Cn1nc(-c2ccc(Cl)cc2)c2ccccc2c1=O
→ -22%[15.4 µM], -15, 0, 4%, 1%, -11, .
- C/C(=N/Nc1nc(-c2ccc(Cl)cc2)cs1)c1cccs1
→ -3%, 3, 0, 5%, 40µM*, -0.7, 2.2%
- COc1ccc(NC(=O)CS(=O)(=O)c2cn(CC(=O)N3CCOCC3)c3ccccc23)cc1
→ ?, 18, -7, 7%, 20%, -1.0, .
- COc1ccc(-c2csc(NC(=O)Cc3ccccc3F)n2)cc1OC
→ -18%[15.4 µM], -12, -10, ?, -3%, 1.8, .
- CCCCn1c(SCc2c(C)noc2C)nc2cc(S(N)(=O)=O)ccc21
→ -36%[inhibitor], -5, 4, -5%, -7%, 0.5, 38%
- COc1cccc(NC(=O)c2ccc3c(c2)N(CC(=O)N2CCCCC2)C(=O)C(C)(C)O3)c1
→ 15%, -15, 0, -3%, 20%, 7.2, -1.7%
- CC(=O)N1CCN(c2ccc(NC(=O)c3ccc(N4CCCC4)c([N+](=O)[O-])c3)cc2Cl)CC1
→ -6%, 1, 1, 6%, -6%, 0.7, 1.2%
- Cn1c(=O)c2c(nc(NCc3ccc4c(c3)OCO4)n2Cc2ccccc2F)n(C)c1=O
→ 3%, 15, -9, -2%, -3%, 6.0, 0.6%
- Cc1cc(OCC(=O)NCCN2CCOCC2)cc(C)c1Br
→ ?, -31, 4, 5%, -3%, -0.3, -0.6%
- COc1ccc(CN2CCOCC2)cc1OC
→ -10%, -3, -3, -7%, 6%, -0.5, 1.4%
- O=C(NCCc1ccccc1)c1ccc(NC(=O)C2CCCCC2)cc1
→ ., ., 5, 9%, ., ., 0.2%
- COc1cc(CNCc2ccccn2)ccc1OCc1cccc(Cl)c1
→ -26%, ., 2, 1%, 79µM*, 2.9, -1.8%
- Cc1cc2ncn(S(=O)(=O)c3ccc(S(=O)(=O)N4CCCCCC4)cc3)c2cc1C
→ -10%, ., -7, -10%, ., ., -1.7%
- COc1ccc(OC/C(O)=C(\C#N)c2nc3ccccc3[nH]2)cc1
→ -4%, -5, -3, 15%, -21%, 2.1, -3.1%
- COC(=O)c1ccccc1NC1c2ccccc2C(=O)N1c1cccnc1 (configuration not stated)
→ -31%[inhibitor], -1, -16, -1%, 4%, 2.8, ?
- O=C(NC1CC2CCCC(C1)N2C(=O)Nc1ccccc1)c1ccccc1 (configuration not stated)
→ -4%, -2, 8, 4%, 9%, 4.7, .
- N/C(=N\NC(=O)c1ccccc1Cl)c1cc2ccccc2oc1=O
→ 0%, 30, -22, 8%, -8%, 0.3, -2.8%
- CC(=O)c1ccc(OC(C)C(=O)NCC2(N3CCOCC3)CCCCC2)cc1 (configuration not stated)
→ -2%[15.4 µM], ., 1, -5%, ., ., 1.9%
- c1ccc(-c2nc(N3CCCCCC3)c3ccccc3n2)nc1
→ 17%, -16, -73*, 6%, -29%, 1.4, -1.9%
- CCOc1ccc2nc(SCC(=O)NCc3ccc(S(N)(=O)=O)cc3)[nH]c2c1
→ 14%, -3, -9, 9%, 21%, 2.1, -3.8%
- COc1ccc(C(C(N)=O)c2ncc(C(F)(F)F)cc2Cl)cc1OC (configuration not stated)
→ 10%, 5, 13, 11%, -1%, -1.9, .
- CSc1nsc(/C=C/Nc2ccc(C(=O)O)cc2)c1C#N
→ ?, ?, -11, -10%, -23%, ?, -2.7%
- COc1ccc(C2NC(=O)NC3=C2C(=O)CCC3)cc1 (configuration not stated)
→ -65%[inhibitor], 0, ., 5%, 13%, 0.7, -1.2%
- COc1cccc(OC)c1C(=O)NC(=O)Nc1c(F)cc(F)cc1F
→ -12%[15.4 µM], -2, -7, 5%, 9%, 4.7, .
- Cc1csc(=O)n1CC(=O)OCC(=O)Nc1cc([N+](=O)[O-])ccc1Cl
→ -3%, -7, 0, 1%, ., ., 2.3%
- Cc1ccccc1NC(=O)C(C)OC(=O)c1ccccc1C(=O)N(C)c1ccccc1 (configuration not stated)
→ -4%, 0, 8, 4%, ., ., -0.1%
- CN(C)/C=C(/C(=O)c1ccccc1Cl)S(=O)(=O)c1ccccc1
→ 1%, ., 1, 5%, ., ., -0.4%
- CN(C(=O)COC(=O)/C=C/c1ccccc1)C1CCS(=O)(=O)C1 (configuration not stated)
→ ?, ., 0, ., ., ., -3.6%
- CCOc1ncccc1C(=O)OCC(=O)Nc1cc(C(=O)OC)ccc1C(=O)OC
→ ., 10, ., ., 18%, 1.3, .
- O=C(NCc1cccs1)C1(S(=O)(=O)c2ccccc2)CC=CC1
→ 17%, -14, 6, 7%, 3%, -4.5, 0.0%
- Cn1nc(N)c2ncc(-c3ccc(Cl)cc3)nc21
→ 12%, ., 0, ., ., ., -2.6%
- CCNc1ccc(C(=O)OCC)cc1NC(=O)c1cccc(S(=O)(=O)N2CCOCC2)c1
→ 5%, 3, -2, -8%, -1%, 5.0, 0.3%
- CN(CC(=O)Nc1ccc(F)cc1)C(=O)CCc1nc2sc3c(c2c(=O)[nH]1)CCCC3
→ 1%, 4, -1, -22%, ., ., -1.0%
